Cruzain noTriton – inhibitors of Trypanosoma cruzi cruzain without detergent; P25779; purified cruzain, Z-FR-AMC fluorescence, no detergent; Potency, µM, for inactives: max response, negative = inhibition, most hits filed as inhibitors; actives 2.3% (n = 200,000);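 note: plate controls were enzyme without inhibitor for no effect and buffer without enzyme for full effect; nearly all actives have a fitted effect of over 40% in size; top concentration of the series not given in the record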
Target sequence (P25779 123-467 limits assumed): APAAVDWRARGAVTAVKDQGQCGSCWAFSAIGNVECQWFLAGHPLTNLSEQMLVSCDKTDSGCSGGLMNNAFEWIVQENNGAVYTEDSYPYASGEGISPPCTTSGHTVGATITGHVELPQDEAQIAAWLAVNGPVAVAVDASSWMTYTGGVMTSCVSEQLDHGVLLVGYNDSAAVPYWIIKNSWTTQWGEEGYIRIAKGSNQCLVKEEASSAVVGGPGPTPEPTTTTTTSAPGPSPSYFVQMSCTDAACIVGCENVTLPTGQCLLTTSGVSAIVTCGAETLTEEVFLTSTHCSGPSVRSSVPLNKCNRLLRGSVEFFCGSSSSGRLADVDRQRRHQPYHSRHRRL
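Detergent-free condition (0.00005% Triton X-100) in acetate buffer pH 5.5 with DTT. 1.5 nM enzyme and compound were pre-mixed 15 min, then 2 uM Z-FR-AMC substrate added; reaction progress from fluorescence change between first and third reads (60 s).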
NS1 function inh – blocks influenza NS1 protein function; Potency, µM (highest dose often 46.1 µM), for inactives: at the top dose activity, positive = more growth; S. cerevisiae slowed by influenza A NS1, growth recovery by OD600; actives 0.4% (n = 270,000); active means well fitted rising curve with a large enough effect; inconclusive means small, poorly fitted or top-dose-only effect; inactive means no such curve, though single readings can be large or run the other way; note: nearly all actives have a fitted effect of over 50% in size
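S. cerevisiae expressing influenza A NS1, grown in glucose, washed, then diluted 1:100 into pH 6.0 -URA galactose medium with 23 nl compound. Growth recovery read as OD600; NS1-free strain serves as control.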
RE007 growth inh – less growth of the S. pombe RE007 Vpr strain; S. pombe RE007 Vpr strain, BacTiter-Glo ATP luminescence, 24 h; control for the full effect not named in the record; Potency, µM (titrated, usually from 92.2 µM), without a hit: at the highest dose activity change, negative = less growth; actives 0.21% (n = 360,000); AID 651644; active = well fitted falling curve with a large enough effect; inconclusive = small, poorly fitted or top-dose-only effect; inactive = no such curve, though single readings can be large or run the other way;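 note: % is set by controls: 0 for no effect and ±100 for the full control effect; nearly all actives have a fitted effect of over 50% in size; the assay follows cell death caused by Vpr and the record does not say whether a fall means rescue or toxicity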
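Fission yeast RE007 carrying one integrated HIV-1 vpr copy, seeded at OD 0.01 in PMG+AL medium with 23 nL pinned compound. Grown 24 h at 30 degrees; viability read by BacTiter-Glo luminescence after 5 min.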
Cruzain Triton – cruzain (T. cruzi) inhibition with detergent. purified cruzain, Z-FR-AMC fluorescence, 0.01% Triton. Potency, µM, inactives show max response, negative = inhibition, most hits filed as inhibitors. actives 0.43% (n = 200,000). AID 1478;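 note: plate controls were neutral wells for no effect and buffer without enzyme for full effect; nearly all actives have a fitted effect of over 40% in size; top concentration of the series not given in the record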
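Cruzain (1.5 nM) preincubated 15 min at RT with compound in 100 mM sodium acetate pH 5.5, 5 mM DTT, 0.01% Triton X-100. Reaction started with 2 uM Z-FR-AMC; AMC fluorescence (ex 360/em 450 nm) change over 60 s gave rate.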
StopGo reporter – lowers the luciferase signal of an FMDV 2A StopGo reporter; human cells with a luciferase reporter of 2A StopGo recoding; control for the full effect not named in the record; Potency, µM (titrated, usually from 57.9 µM), for the others: at the highest dose signal change, negative = less light; actives 1.2% (n = 410,000); AID 1159524; active = well fitted falling curve with a large enough effect; inconclusive = small, poorly fitted or top-dose-only effect; inactive = no such curve, though single readings can be large or run the other way; tested in HEK293T cells; note: % is set by controls: 0 for no effect and ±100 for the full control effect; nearly all actives have a fitted effect of over 45% in size; luciferase light after 4 h
Lassa entry inh – inhibitors of Lassa virus binding or cell entry; Potency, µM (doses to about 37.9 µM), inactives show at the top dose activity change, negative = inhibition, usual class: inhibitors; Lassa virus pseudotype entry inhibition, cell reporter; control for the full effect not named in the record; actives 1.2% (n = 300,000); active means well fitted inhibition curve with a large enough effect; inconclusive means small, poorly fitted or top-dose-only effect, or effect the other way; inactive means flat fitted curve, though single readings scatter; tested in HEK293 cells; note: % is set by controls: 0 for no effect and ±100 for the full control effect; nearly all actives have a fitted effect of over 50% in size; luciferase read-out
Marburg entry inh – Marburg virus entry inhibition | Marburg virus pseudotyped entry inhibition, cell reporter; control for the full effect not named in the record; about a third of the inactives were read at about 46 µM | Potency, µM (doses to about 37.8 µM), without a hit: at the highest dose activity change, negative = inhibition, usual class: inhibitors | actives 1.8% (n = 300,000); active = well fitted inhibition curve with a large enough effect; inconclusive = small, poorly fitted or top-dose-only effect, or effect the other way; inactive = flat fitted curve, though single readings scatter; tested in HEK293 cells; about a fifth of its hits are not listed in these tables; note: % is set by controls: 0 for no effect and ±100 for the full control effect; luciferase read-out
SARS PLpro yeast – SARS-CoV PLP inhibition in yeast | S. cerevisiae expressing SARS-CoV PLpro, growth rescue; control for the full effect not named in the record | Potency, µM (top dose mostly 32.9 µM), for the others: at the top dose activity, positive = growth rescue | actives 0.19% (n = 330,000); active means well fitted rising curve with a large enough effect; inconclusive means small, poorly fitted or top-dose-only effect; inactive means no such curve, though single readings can be large or run the other way; note: 0% is about no effect; nearly all actives have a fitted effect of over 55% in size; growth read by luminescence after 48 h
* hit, by the source's call; ? = inconclusive; . = no result given; & = joins results of further samples; ! = a repeat was not active; [ ] = remark or other dose. Unless noted, calls come from the whole dose curve; as a rule, active = well fitted curve in the direction sought with a large enough effect; inconclusive = small, poorly fitted or top-dose-only effect, or another doubt; inactive = no such curve, though single readings can be large; an effect the other way counts as inactive or inconclusive. Potency is the fitted concentration of half-maximal effect.

SMILES	Cruzain noTriton	NS1 function inh	RE007 growth inh	Cruzain Triton	StopGo reporter	Lassa entry inh	Marburg entry inh	SARS PLpro yeast
CC(=O)c1cccc(NCC(=O)Nc2cccc(S(=O)(=O)N3CCCCC3)c2)c1	.	.	5%	.	3%	2%	?	.
Cc1ccc(C)c(NC(=O)Cn2c(=O)n(CCC(C)C)c(=O)c3cccnc32)c1	-14%	.	.	0.0%	10%	.	17%[46.1 µM]	.
COC(=O)C1=C(N)N(c2ccccc2C(F)(F)F)C2=C(C(=O)CCC2)C1c1ccc2c(c1)OCO2 (stereo unspecified)	?	12%	21%	-4.3%	-28%	-29%	-26%	-3%
Cn1c(=O)c(C(=O)CSc2nncs2)c(N)n(Cc2ccccc2)c1=O	-16%	3%	15%	-0.6%	.	9%	-2%	2%
Cc1ccccc1OCC(=O)N/N=C/c1cn(C)c2ccccc12	.	-6%	12%	.	-8%	-27%	-21%	-7%
COc1cc(/C=C/C(=O)OCC(=O)NCc2ccc(F)cc2)ccc1O	.	.	9%	.	-8%	-18%[46.1 µM]	?	19%
CC1(C)CC(C(CC(=O)O)c2ccccc2)CCO1 (stereo unspecified)	2%	-5%	-7%	3.7%	.	1%	-15%	10%
COC(=O)c1ccc(/C=N/OCC(=O)NCc2ccc(F)cc2)cc1	.	.	-4%	.	-7%	-18%	-1%	-10%
O=C(NCCCn1ccnc1)c1cc([N+](=O)[O-])cc([N+](=O)[O-])c1	7%	3%	-14%	-0.8%	-27%	-4%	-22%	3%
O=C1c2ccccc2NC(c2ccco2)N1NS(=O)(=O)c1ccccc1 (stereo unspecified)	.	.	?	.	4%	?	0%[46.1 µM]	-1%
COc1ccc(-c2nc(CSCC(=O)NCc3ccccc3Cl)c(C)o2)cc1OC	1%	.	.	-4.7%	?	-28%[46.1 µM]	-2%[46.1 µM]	.
O=C(COc1ccc(Cl)cc1Cl)Nc1cccc(-c2ccc(N3CCOCC3)nn2)c1	.	.	-7%	.	27%	-3%[46.1 µM]	11%	5%
N#CC(c1ccccn1)c1ncc(C(F)(F)F)cc1Cl (stereo unspecified)	.	1%	2%	.	-9%	7%[46.1 µM]	-1%[46.1 µM]	1%
CCOC(=O)N1CCC(n2c(=S)[nH]c3cc(OCC)c(OCC)cc3c2=O)CC1	?	?	-6%	3.4%	-9%	-12%	?	4%
CCc1c(C)nc(N)c(C#N)c1-c1ccccc1	.	5%	20%	.	0%	-16%[46.1 µM]	-7%[46.1 µM]	1%
CCCC(C(=O)NC1CCCC1)N(Cc1ccccc1)C(=O)c1snc(C(N)=O)c1N (stereo unspecified)	.	-12%	13%	.	-5%	11%[46.1 µM]	-25%[46.1 µM]	0%
Clc1ccccc1-c1csc(Nc2cccnc2)n1	.	-6%	3%	.	52%[activator]	?	?	-3%
O=c1c2ccccc2oc2nc3ccn(Cc4ccncc4)c(=O)c3cc12	2%	-2%	.	3.7%	.	.	0%	-2%
CCOC(=O)c1c(CN2CCN(CCO)CC2)n(C)c2cc(Br)c(OC)cc12	-6%	-3%	19%	-1.5%	-1%	?	8.2µM*!	1%
Cc1c(C(=O)Nc2ccc3c(c2)OCCO3)sc2nc(-c3ccccc3)cn12	?	-24%	9%	-7.2%	16µM*	?	?	-23%
C[C@H](NC(=O)c1cc2c([nH]c3ccccc32)c(-c2ccccc2)n1)C(=O)O	.	?	-8%	.	-4%	.	.	-1%
C/C(=N/NC(=O)CNC(=O)COc1ccccc1)c1ccc(Cl)cc1	.	15%	-2%	.	-5%	?	4%[46.1 µM]	14%
COc1cc(NC(=O)C2CCN(S(=O)(=O)c3c(C)noc3/C=C/c3ccccc3F)CC2)cc(OC)c1OC	?	.	.	-3.2%	-21%	?	.	.
Cc1ccnc(OC(C(=O)O)C(OCc2ccccc2)(c2ccccc2)c2ccc(C(F)(F)F)cc2)n1 (stereo unspecified)	.	?	-6%	.	-15%	.	.	5%
CCOc1ccc(NC(=S)NC2CC3CCC(C2)N3Cc2ccco2)cc1 (stereo unspecified)	.	9%	-28%	.	-2%	4%[46.1 µM]	?	-1%
CC(=O)Nc1ccc(C(=O)Nc2ccc(S(=O)(=O)N3CCOCC3)cc2)cc1	.	8%	-13%	.	43%[activator]	.	.	3%
CC(SC#N)C(=O)C12CC3CC(CC(C3)C1)C2 (stereo unspecified)	.	.	-22%	.	?	-1%[46.1 µM]	?	-11%
CCN(CC)C(=O)CSc1nc2ccccc2c(=O)n1OC(C)C	0%	-1%	15%	4.6%	-6%	8%	13%	1%
CC1CCCN(CC(O)CN)C1 (stereo unspecified)	-11%	9%	9%	0.0%	-1%	-1%	?	-12%
O=C1c2[nH]nc(-c3ccc(F)cc3)c2C(c2ccccc2F)N1c1ccccc1 (stereo unspecified)	?	.	.	-12%	?	?	-16%[46.1 µM]	.
COc1ccc(/C=C/C(=O)Nc2nnc(C(C)C)s2)cc1OC	.	-2%	1%	.	-14%	.	.	0%
CC(CCc1ccccc1)NC(=O)CSc1n[nH]c(-c2ccc(F)cc2)n1 (stereo unspecified)	-11%	.	.	-4.5%	?	-29%[46.1 µM]	.	.
CC(=O)Nc1nonc1-c1nnc(SCc2ccccc2)n1C	-5%	.	.	0.4%	-16%	-2%[46.1 µM]	-1%[46.1 µM]	.
CCC(C)NC(=O)c1[nH]c2cc(OC)ccc2c1Sc1ccc(C)cc1 (stereo unspecified)	?	.	.	-6.5%	30%[activator]	-7%[46.1 µM]	1%[46.1 µM]	.
Cn1c(=N)n(CC(=O)O)c2ccccc21	1%	0%	166%	0.6%	6%	1%	-2%	-1%
Cc1cc(NC(=O)CCC(=O)N(c2ccccc2)C(C)C(=O)NC2CCCC2)no1 (stereo unspecified)	.	-2%	-3%	.	-6%	-19%	1%[46.1 µM]	-1%
C#CCN1C(=O)C(O)(c2c(C)[nH]c3ccccc23)c2ccccc21 (stereo unspecified)	.	-34%	-8%	.	-19%	7%[46.1 µM]	-21%[46.1 µM]	-2%
CCc1cccc(C)c1NC(=O)C(CC)Sc1nncn2c1cc1occc12 (stereo unspecified)	14%	.	.	-3.9%	0%	-5%[46.1 µM]	.	.
N#Cc1cccc(C(=O)OCC(=O)NC(=O)NC2CCCCC2)c1	.	.	18%	.	-19%	9%	12%[46.1 µM]	-3%
COc1ccccc1N1C(=O)CCC1(C#N)c1ccccc1 (stereo unspecified)	-2%	9%	-6%	-0.3%	5%	2%	-2%	.

Entries of single compounds, quoted from the list. Values in the order: Cruzain noTriton, NS1 function inh, RE007 growth inh, Cruzain Triton, StopGo reporter, Lassa entry inh, Marburg entry inh, SARS PLpro yeast
`CCN(CC)C(=O)CSc1nc2ccccc2c(=O)n1OC(C)C` in the list: 0%, -1%, 15%, 4.6%, -6%, 8%, 13%, 1%
`CC(=O)Nc1nonc1-c1nnc(SCc2ccccc2)n1C` in the list: -5%, ., ., 0.4%, -16%, -2%[46.1 µM], -1%[46.1 µM], .

(more compounds)
SMILES	Cruzain noTriton	NS1 function inh	RE007 growth inh	Cruzain Triton	StopGo reporter	Lassa entry inh	Marburg entry inh	SARS PLpro yeast
COc1ccnc(CSC(N)=Nc2cccc(C(F)(F)F)c2)c1	1%	-45%	?	-11%	?	3%	-13%	-102%
COC(=O)c1ccc(C2C(C#N)=C(N)Oc3cc(C)n(C)c(=O)c32)cc1 (stereo unspecified)	2%	15%	-22%	3.8%	17%	14%	23%	3%
CCOc1ccc(C(=O)c2cn(CC(=O)Nc3cc(OC)cc(OC)c3)c3ccc(F)cc3c2=O)cc1	?	.	.	-3.4%	9%	-14%[46.1 µM]	-18%[46.1 µM]	.
CCOc1ccc(Cl)cc1CSc1ncn[nH]1	15%	-20%	2%	-3.6%	-25%	-6%	?	-1%
O=C(CSc1nnc(-c2ccccn2)n1-c1ccc(Cl)cc1)Nc1ccc2c(c1)OCO2	2%	-1%	-2%	2.3%	-12%	-1%	-12%	7%
Cc1ccccc1OCC(=O)OC1CCN(C)CC1	-6%	?	67%	10%	0%	0%	4%	1%
O=C(/C=C/c1ccccc1)NC(NC(=S)Nc1ccc(Cl)cc1)C(Cl)(Cl)Cl (stereo unspecified)	?	9%	-8%	-0.7%	-21%	?	4.6µM*	-8%
CCC1=NN(C(=O)CCc2ccc3c(c2)OCO3)C(O)(C(F)(F)F)C1 (stereo unspecified)	.	3%	-5%	.	3%	-13%	?	4%
COc1ccc(N2C(=O)C(CC(N)=O)N(NC(=O)c3cccc(OC)c3)C2=S)cc1 (stereo unspecified)	.	.	13%	.	23%	-8%	6%[46.1 µM]	3%
COc1cc(C(C(=O)NCc2ccccc2)N(C(=O)c2snc(C(N)=O)c2N)C2CCCC2)cc(OC)c1OC (stereo unspecified)	.	5%	-17%	.	-13%	2%[46.1 µM]	?	0%
COc1ccc(C(CCN2CCOCC2)c2c(OC)cc(OC)c3c(C)cc(=O)oc23)cc1 (stereo unspecified)	.	2%	-5%	.	21%	.	.	-3%
O=C(CN1C(=O)COc2ccc(S(=O)(=O)Nc3ccccc3)cc21)Nc1cccc(Cl)c1	?	.	.	-10%	2%	-10%[46.1 µM]	.	.
CCOC(=O)C1(CCc2ccccc2)CCN(C(=O)c2cnc(C)cn2)CC1	.	2%	-10%	.	-10%	5%[46.1 µM]	1%[46.1 µM]	-1%
Cc1ccc2c(c1)C(N1CCCC1=O)CC(c1ccco1)N2 (stereo unspecified)	4%	-72%	?	-9.3%	-51%	?	?	-6%
COc1ccc(S(=O)(=O)c2c(Nc3ccccc3F)sc(C(=O)c3cccc(OC)c3)c2N)cc1	13µM*	.	.	-1.2%	36%[activator]	?	.	.
CCOc1ccccc1NC(=O)CCNS(=O)(=O)c1cccc2nonc12	8%	0%	-5%	-0.5%	4%&13%	?	0%&-11%[46.1 µM]	-7%
O=C1CC(NNC(=O)c2ccc(Br)cc2)C(=O)N1 (stereo unspecified)	.	-3%	-21%	.	3%	-1%	20%[14.2 µM]	0%
CC(C)CNC(=O)CC(=O)N/N=C/c1ccc(Br)cc1	-8%	?	8%	-4.5%	.	-2%	8%	-10%
O=C(Nc1ccccc1C(=O)N1CCOCC1)c1noc2c1CCCC2	-6%	7%	-16%	4.1%	5%	?	6%	3%
